# CtBP-E1A inh – qHTS Assay for Inhibitors of the CtBP/E1A Interaction; 340,000 compounds, 0.49% hits; activity change, % (test concentration not listed); AlphaScreen GST-E1A/His-CtBP binding, 1536-well; stronger effect = lower value; control for the full effect not named in the record; in the data active means activity change below about -65%; inconclusive means about -30% to -65%; inactive means above about -30%; note: % is set by controls: 0 for no effect and ±100 for the full control effect
#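 In 5 uL wells, 23 nL compound meets equimolar GST-E1A and His-CtBP (5X stock 125 nM each) for 2 h, 37 °C. Beads (5X, 50 ug/mL) then 1 h, 37 °C, dark.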
# TRPML1 agonist – qHTS for Agonists of the Human Mucolipin Transient Receptor Potential 1 (TRPML1); Mucolipin-1 (Homo sapiens), Q9GZU1; TRPML1-expressing cells, Ca2+ dye fluorescence, FDSS; host cell line not named in the record; reference of the full effect not given here; activation, % (concentration not given with the values); 410,000 compounds, 0.12% hits; AID 624414, 2012; in the data active = activation above about 50%; inconclusive = about 30% to 50%; inactive = below about 30%; note: 0% is about no effect; the text of the record puts the active cut at 80%
#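 Tet-induced TRPML1-DL cells, 1,500 per well, cultured overnight, were loaded with a no-wash Ca2+ dye for 45–90 min. Calcium fluorescence was recorded on the FDSS for 110 s after compound addition, before the EC80 agonist (4 uM 54-4) was added.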
# TRPML1 inh – qHTS for Inhibitors of the Human Mucolipin Transient Receptor Potential 1 (TRPML1); AID 624415, 2012; TRPML1-inducible cells, Ca2+ dye fluorescence, FDSS; stronger effect = lower value; inhibition of EC80 agonist-evoked calcium signal; activity change, negative = inhibition, % (test concentration not listed); Mucolipin-1 (Homo sapiens), Q9GZU1; 390,000 compounds, 0.02% hits; in the data active means activity change below about -50%; inconclusive means about -30% to -50%; inactive means above about -30%;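 note: stimulus is agonist 54-4 at its EC80 concentration; % is set by controls: 0 for no effect and ±100 for the full control effect; compound concentration not given in the record; the text of the record puts the active cut at -80%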
#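 Calcium fluorescence in TRPML1-DL cells induced overnight with Tet: a 110 s read after compound pin addition, then a 110 s antagonist read after challenge with 54-4 at 4 uM final (EC80).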
# D2 potentiator – Beta-Arrestin HTS for Positive Allosteric Modulators of the Human D2 Dopamine Receptor: Potentiators; DiscoveRx D2 beta-arrestin cells, luminescence, 90 min; 100% = 57 uM dopamine signal; D(2) dopamine receptor (Homo sapiens), P14416; potentiation, % (no concentration beside the values); 360,000 compounds, 0.23% hits; AID 624464, 2012; active = potentiation of 50% or more; inconclusive = 30% to 50%; inactive = 30% or less;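 note: compound concentration not given in the record; tested on top of an EC20 dose of dopamine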
#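 D2 cells co-treated with compound plus 50 nM dopamine (EC20) for 90 min at 37 deg C to detect potentiation. Beta-arrestin recruitment was read as enzyme-fragment luminescence after 1 h at ambient temperature. Full response was set by 57 uM dopamine.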
# TRPV1 PAM – HTS Assay for Compounds that Act as Potentiators of the Vanilloid Receptor 1; Transient receptor potential cation channel subfamily V member 1 (Homo sapiens), Q8NER1; TRPV1-expressing cells, Fluo-8 calcium influx, capsaicin EC20 potentiation; host cell line not named in the record; control for the full effect not named in the record; potentiation, % at 8.33 µM; 320,000 compounds, 0.02% hits; AID 540277, 2011; active means potentiation above 80%; inconclusive means 30% to 80%; inactive means below 30%; note: 0% is about no effect
# Target sequence (Q8NER1 whole entry, looked up): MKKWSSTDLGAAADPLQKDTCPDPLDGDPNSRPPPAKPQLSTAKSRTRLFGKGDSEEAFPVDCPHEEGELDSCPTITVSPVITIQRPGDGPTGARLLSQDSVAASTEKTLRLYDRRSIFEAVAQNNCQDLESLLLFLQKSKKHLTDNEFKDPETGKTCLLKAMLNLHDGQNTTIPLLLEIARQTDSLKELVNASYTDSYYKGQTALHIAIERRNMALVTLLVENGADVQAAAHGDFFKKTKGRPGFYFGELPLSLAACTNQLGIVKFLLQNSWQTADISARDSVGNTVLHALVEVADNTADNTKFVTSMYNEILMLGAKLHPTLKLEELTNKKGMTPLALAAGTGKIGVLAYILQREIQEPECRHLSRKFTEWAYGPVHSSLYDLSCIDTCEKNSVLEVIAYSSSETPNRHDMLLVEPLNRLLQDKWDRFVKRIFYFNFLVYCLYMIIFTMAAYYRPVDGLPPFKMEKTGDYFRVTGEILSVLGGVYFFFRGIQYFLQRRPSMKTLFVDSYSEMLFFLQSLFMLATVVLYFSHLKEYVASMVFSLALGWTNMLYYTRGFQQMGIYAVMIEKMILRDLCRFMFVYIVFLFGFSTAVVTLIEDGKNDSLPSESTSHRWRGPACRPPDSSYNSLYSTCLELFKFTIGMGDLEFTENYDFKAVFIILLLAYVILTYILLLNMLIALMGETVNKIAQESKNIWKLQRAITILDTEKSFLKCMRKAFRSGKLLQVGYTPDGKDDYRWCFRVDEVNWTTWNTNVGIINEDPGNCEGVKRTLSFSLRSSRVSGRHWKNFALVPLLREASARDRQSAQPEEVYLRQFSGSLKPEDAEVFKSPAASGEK
#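 Fluo-8 calcium influx in TRPV1-expressing cells, kinetic read (ex 480/em 520 nm). Compound added and read 3 min for agonist activity, followed by capsaicin at EC20 final and 2 min further read for enhancement.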
# An asterisk follows results filed as active; ? = inconclusive; . = no result given. An excerpt (hit frequency here may not be typical).
molecule	TRPML1 inh	TRPV1 PAM	D2 potentiator	TRPML1 agonist	CtBP-E1A inh
Cc1ccccc1Nc1c(-c2ccc(Cl)s2)nc2ccccn12	.	.	.	-0.5	.
CCOC(=O)C1=C(C)NC2=C(C(=O)C(C(=O)OCC)C(c3ccco3)C2)C1c1ccccc1C (stereo not given)	.	.	.	0.1	.
CC(C)C(=O)NC(c1ccc(N(C)C)cc1)c1ccc2cccnc2c1O (stereo not given)	.	.	.	-0.3	.
CCN(Cc1cccc(S(=O)(=O)O)c1)c1ccc(C(=C2C=CC(=[N+](CC)Cc3cccc(S(=O)(=O)O)c3)C=C2)c2ccc(O)cc2S(=O)(=O)O)cc1	.	.	.	-1.0	.
CN(C)c1ccc(/C=C/c2nccc3ccccc23)cc1	.	.	.	?	.
O=S(=O)(c1ccc2c(Cl)cccc2c1)N1CCN(c2nc(-c3cccs3)nc3ccccc23)CC1	.	.	.	-0.3	.
CCCCCCC[n+]1ccc(/C=C/c2c[nH]c3ccccc23)cc1	.	.	.	63*	.
O=C(C[n+]1cccc(Cl)c1)c1ccc(F)cc1	.	.	.	0.1	.
Cc1cc2nccc(/C=C/c3ccc(N(C)C)cc3)c2cc1C	.	.	.	5.1	.
CN(C)c1ccc(/C=C/c2ccnc3c(Cl)ccc(Cl)c23)cc1	.	.	.	64*	.
O=C(CNC(=O)C1CCCCC1)OCc1ccccc1	.	.	.	-0.8	.
COc1c([N+](=O)[O-])ccc(N)c1N	.	.	.	-0.7	.
COc1cc2c(NC3CCN(C)CC3)nc(N3CCN(C)CC3)nc2cc1OCCCN(C)C	.	.	.	-0.6	.
O=C(CCOc1ccccc1)NO	.	.	.	-0.2	.
COc1ccc(CC(=O)NO)cc1OC	.	.	.	0.0	.
Cc1cc(C)c2c(C)ccnc2c1	.	.	.	-0.9	.
OC[C@@H]1CCC[C@@H](n2cnc3c(=S)nc[nH]c32)O1	.	.	.	0.2	.
Cn1c(SCCOc2ccccc2)nnc1-c1ccc(NC(=O)CCc2ccccc2)cc1	.	.	.	-0.4	.
ClC/C=C/C[n+]1ccccc1Cl	.	.	.	0.3	.
CCCN1CNc2c(c(=O)[nH]c(=S)n2CCCc2ccccc2)C1	.	.	.	-0.2	.
CCOc1ccc(/C=C/c2ccc3ccccc3n2)cc1OCC	.	.	.	6.3	.
COc1ccc(C2Nc3ccccc3C(=O)N2c2ccccc2F)cc1COc1ccc(NC(C)=O)cc1 (stereo not given)	.	.	.	-0.4	.
C(=C\c1nccc2ccccc12)/c1ccc(N2CCOCC2)cc1	.	.	.	4.0	.
NCCCCCCNS(=O)(=O)c1ccc2c(Cl)cccc2c1	.	.	.	0.7	.
COc1cc(N)c(NC(=O)/C=C/c2nc3cc(OC)c(OC)cc3[nH]2)cc1OC	.	.	.	-0.4	.
CCc1ccc(OCCCn2c(CCNC(=O)C3CCCCC3)nc3ccccc32)cc1	.	.	.	-0.3	.
COC(=O)C1=C(C(=O)OC)[C@]2([C@@H]3C/C=C\CN[C@@H](Cc4ccccc4)C(=O)N3Cc3ccccc3)C=C[C@H]1O2	.	.	.	1.7	.
Cn1cc(C2=C(c3cn(CCCSC(=N)N)c4ccccc34)C(=O)NC2=O)c2ccccc21	.	.	.	3.1	.
C[N+]1(CC(=O)c2ccc3c(c2)CCCC3)CCOCC1	.	.	.	-0.9	.
N#Cc1c(NC(=S)NC(=O)c2ccccc2)sc2c1CCCCC2	.	.	.	0.1	.

# Copied from the results shown, 6 compounds:
molecule	TRPML1 inh	TRPV1 PAM	D2 potentiator	TRPML1 agonist	CtBP-E1A inh
Cc1ccccc1Nc1c(-c2ccc(Cl)s2)nc2ccccn12	.	.	.	-0.5	.
CCOC(=O)C1=C(C)NC2=C(C(=O)C(C(=O)OCC)C(c3ccco3)C2)C1c1ccccc1C (stereo not given)	.	.	.	0.1	.
CC(C)C(=O)NC(c1ccc(N(C)C)cc1)c1ccc2cccnc2c1O (stereo not given)	.	.	.	-0.3	.
CCN(Cc1cccc(S(=O)(=O)O)c1)c1ccc(C(=C2C=CC(=[N+](CC)Cc3cccc(S(=O)(=O)O)c3)C=C2)c2ccc(O)cc2S(=O)(=O)O)cc1	.	.	.	-1.0	.
CN(C)c1ccc(/C=C/c2nccc3ccccc23)cc1	.	.	.	?	.
O=S(=O)(c1ccc2c(Cl)cccc2c1)N1CCN(c2nc(-c3cccs3)nc3ccccc23)CC1	.	.	.	-0.3	.

# Additional records
molecule	TRPML1 inh	TRPV1 PAM	D2 potentiator	TRPML1 agonist	CtBP-E1A inh
COc1cc2c(NC3CCN(C(C)C)CC3)nc(N3CCCN(C)CC3)nc2cc1OCCOCCN(C)C	.	.	.	-0.2	.
CCCCCCCCN(CCCCCCCC)c1ccc(/C=C/c2ccnc3ccccc23)cc1	.	.	.	0.2	.
Cc1csc[n+]1CCC1CCCCC1	.	.	.	0.4	.
Cn1ncc2c(NCc3ccco3)ncnc21	.	.	.	-0.4	.
Cc1ccc(S/C(=N/S(=O)(=O)c2ccc(Cl)cc2)c2ccccc2)cc1	.	.	.	-0.4	.
O=C(CNC(=O)C1CCCCC1)OCC(=O)c1ccc(-c2ccccc2)cc1	.	.	.	-0.7	.
NC(=O)COc1ccccc1C(=O)Nc1ccccc1	.	.	.	-0.7	.
O=C(NNc1ccccc1C(F)(F)F)c1sccc1Cl	.	.	.	-1.1	.
Cc1cccc(OCC(=O)Nc2cc(-c3nc4cc(Cl)ccc4o3)ccc2C)c1	.	.	.	0.0	.
Cc1sc2ccccc2[n+]1C	.	.	.	1.5	.
O=C1c2ccccc2C(=O)N1c1ccccn1	.	.	.	-0.3	.
CC1CCN(C(=O)Nc2ccc3nc(-c4ccco4)c(-c4ccco4)nc3c2)CC1	.	.	.	0.1	.
CCCCC(CCCC)c1ccc(C=Nc2ccc(/C=C/c3ccnc4ccccc34)cc2)cc1	.	.	.	5.8	.
C=CCN=C1N[C@@H](c2ccc(Br)cc2)C(C(=O)OC)=C(C)N1Cc1ccccc1	.	6	.	1.3	.
O=C(OC[C@H]1O[C@@H](OC(=O)c2cc(O)c(O)c(OC(=O)c3cc(O)c(O)c(O)c3)c2)[C@H](OC(=O)c2cc(O)c(O)c(OC(=O)c3cc(O)c(O)c(O)c3)c2)[C@@H](OC(=O)c2cc(O)c(O)c(OC(=O)c3cc(O)c(O)c(O)c3)c2)[C@@H]1OC(=O)c1cc(O)c(O)c(OC(=O)c2cc(O)c(O)c(O)c2)c1)c1cc(O)c(O)c(OC(=O)c2cc(O)c(O)c(O)c2)c1	.	-13	.	-0.4	.
Cc1ccc(N=Cc2cccc(O)c2O)c(C)c1	.	7	.	-0.8	.
COc1cc(/C(C)=C/c2ccccc2)c2c(c1)oc1ccccc12	.	-3	.	1.3	.
NC(=O)c1cc([N+](=O)[O-])ccc1NCCN1C(=O)c2ccccc2C1=O	.	22	0	.	.
O=C(CN1C(=O)c2ccccc2C1=O)Nc1nc(-c2cccc([N+](=O)[O-])c2)cs1	.	7	.	.	3
CCc1nn2c(=O)cc(N3CCN(c4cc(C)nc5ccccc45)CC3)nc2s1	.	2	.	.	5
O=C(Nc1ccccc1)C(Cc1ccccc1)N1Cc2ccccc2C1=O (stereo not given)	17	.	.	1.6	.
CCOC(=O)c1c(NC(=O)c2cc(OCC)c(OCC)c(OCC)c2)sc2c1CCCCC2	0	.	.	1.4	.
Cc1ccc(Cl)cc1N(C)C(=O)Cn1nc(Cc2cccnc2)c2ccccc2c1=O	-7	.	.	-0.6	.
CCCC(=O)Nc1nnc(S(=O)(=O)N(C)Cc2ccc(Cl)cc2)s1	-11	.	.	1.3	.
CCOC(=O)c1ccc(NC(=O)c2cnc3c(-c4ccc(F)cc4)c(C)nn3c2C)cc1	-4	.	.	-0.2	.
CCCCn1c(CN2CCN(c3ccc(OC)cc3)CC2)nc2c1c(=O)[nH]c(=O)n2C	-16	.	.	-0.7	.
Cc1c(C(=O)N2CCC(c3nc4ccccc4s3)CC2)oc2cc(Br)ccc12	6	.	.	0.3	.
CCN1CCc2c(sc(-n3cccc3)c2C(C)NC(=O)Nc2ccccc2C)C1 (stereo not given)	1	.	.	1.4	.
CC(Oc1ccccc1)C(=O)Nc1ccccc1C(=O)OCc1cc(=O)n2nc(C(C)C)sc2n1 (stereo not given)	-19	.	.	0.9	.
CCOC(=O)Cc1c(C)nc2c(-c3ccc(OC)c(OC)c3)c(C)nn2c1C	21	.	.	1.6	.
COc1ccc(-n2c(=O)c3c4c(sc3n(Cc3ccccc3)c2=O)CN(C(C)=O)CC4)cc1OC	22	.	.	1.1	.
COC(=O)c1ccccc1NC(=O)Cc1noc2ccc(C)cc12	-4	.	.	-0.2	.
CCOC(=O)c1cc(S(=O)(=O)N2CCN(c3ccc(C(C)=O)cc3)CC2)[nH]n1	4	.	.	0.1	.
O=C(CC1N=C2c3ccccc3N=C(SCc3ccccc3F)N2C1=O)NCCc1ccccc1 (stereo not given)	5	.	.	3.1	.
COc1ccc2oc(=O)c(C(=O)NCCc3c(C)[nH]c4ccc(C)cc34)cc2c1	25	.	.	2.5	.
CCCOC(=O)c1c(NC(=O)C(C)Sc2nc(-c3ccccc3)cc(C(F)(F)F)n2)sc(C(=O)N(C)C)c1C (stereo not given)	-7	.	.	0.5	.
Cc1cc(=O)[nH]c2nnc(SCc3ccc(C(F)(F)F)cc3)n12	-11	.	.	2.3	.
COC(=O)c1c(-c2ccc(Cl)cc2)noc1N1CCN(c2ccccc2F)CC1	-10	.	.	2.3	.
Cc1ccc(Cl)cc1NC(=O)c1ccc2snnc2c1	-15	.	.	1.3	.
COc1ccc(N2CCN(C(=O)C3CCN(S(=O)(=O)c4cccc5nonc45)CC3)CC2)cc1	-21	.	.	1.7	.
Cc1ccc(CNC(=O)c2cc3sccc3n2Cc2ccc(Cl)cc2)cc1	37	.	.	0.9	.
O=C(c1ccccc1Cl)N1CCC(c2nc3ccccc3s2)CC1	12	.	.	-1.1	.
Cc1cccc(OCc2nc(CC(=O)Nc3ccc(C)c(C)c3)cs2)c1	6	.	.	1.6	.
CCc1nnc2c(NCc3ccccc3OC)nc3ccccc3n12	21	.	.	1.7	.
COc1ccc(NC(=O)CSc2nc(-c3ccco3)nc3cc(=O)[nH]n23)cc1	-12	.	.	0.1	.
COc1ccc(N2CC(NC(=O)Cc3cccs3)CC2=O)cc1 (stereo not given)	8	.	.	-0.2	.
CCOC(=O)C(CC)Sc1ccc2nnc(CCNS(=O)(=O)c3ccc(C)cc3)n2n1 (stereo not given)	7	.	.	0.1	.
CC(=O)N1c2ccccc2C(=O)C1N1CCN(c2cccc(Cl)c2)CC1 (stereo not given)	-10	.	.	0.7	.
Cc1ccc(C(=O)CC2(O)C(=O)N(Cc3ccccc3)c3ccccc32)c(C)c1 (stereo not given)	39	.	.	2.8	.
Cc1cc(NC(=O)CCc2nc3cccnc3n2Cc2cccs2)ccc1Br	-10	.	.	2.6	.

# Assay outcomes from PubChem.
